Lassa entry inh: blocks Lassa virus binding to or entry into cells | Lassa virus pseudotype entry inhibition, cell reporter; control for the full effect not named in the record | Potency, µM (series often up to 37.9 µM), inactives show at the top dose activity change, negative = inhibition, actives largely listed as inhibitors | hit rate 1.2% among 300,000; active means well fitted inhibition curve with a large enough effect; inconclusive means small, poorly fitted or top-dose-only effect, or effect the other way; inactive means flat fitted curve, though single readings scatter; tested in HEK293 cells; note: % is set by controls: 0 for no effect and ±100 for the full control effect; nearly all actives have a fitted effect of over 50% in size; luciferase read-out
MARV entry inh: inhibitors of Marburg virus binding or cell entry; Marburg virus pseudotyped entry inhibition, cell reporter; control for the full effect not named in the record; about a third of the inactives were read at about 46 µM; Potency, µM (series often up to 37.8 µM), for the others: at the top dose activity change, negative = inhibition, most hits filed as inhibitors; hit rate 1.8% among 300,000; AID 540276; active = well fitted inhibition curve with a large enough effect; inconclusive = small, poorly fitted or top-dose-only effect, or effect the other way; inactive = flat fitted curve, though single readings scatter; tested in HEK293 cells; about a fifth of its hits are not listed in these tables; note: % is set by controls: 0 for no effect and ±100 for the full control effect; luciferase read-out
2A StopGo: lowers the luciferase signal of an FMDV 2A StopGo reporter. human cells with a luciferase reporter of 2A StopGo recoding; control for the full effect not named in the record. hit rate 1.2% among 410,000. Potency, µM (series often up to 57.9 µM), for inactives: top-dose signal change, negative = less light; active = well fitted falling curve with a large enough effect; inconclusive = small, poorly fitted or top-dose-only effect; inactive = no such curve, though single readings can be large or run the other way; tested in HEK293T cells; note: % is set by controls: 0 for no effect and ±100 for the full control effect; nearly all actives have a fitted effect of over 45% in size; luciferase light after 4 h
NS1 inh: inhibitors of influenza NS1 protein function | S. cerevisiae slowed by influenza A NS1, growth recovery by OD600 | Potency, µM (series often up to 46.1 µM), for inactives: at the top dose activity, positive = more growth | hit rate 0.4% among 270,000 | AID 2326; active means well fitted rising curve with a large enough effect; inconclusive means small, poorly fitted or top-dose-only effect; inactive means no such curve, though single readings can be large or run the other way; note: nearly all actives have a fitted effect of over 50% in size
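Compounds were scored for reversing the slow growth caused by influenza A NS1 in S. cerevisiae, measured by optical density at 600 nm. Assay medium contained 2% galactose at pH 6.0; NS1-free yeast of the same strain were the positive control.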
Cruzain inh noDet: cruzain (T. cruzi) inhibition without detergent. Potency, µM, for inactives: max response, negative = inhibition, actives largely listed as inhibitors. purified cruzain, Z-FR-AMC fluorescence, no detergent. hit rate 2.3% among 200,000;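 note: plate controls were enzyme without inhibitor for no effect and buffer without enzyme for full effect; nearly all actives have a fitted effect of over 40% in size; top concentration of the series not given in the record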
Target sequence (P25779 123-467 limits assumed): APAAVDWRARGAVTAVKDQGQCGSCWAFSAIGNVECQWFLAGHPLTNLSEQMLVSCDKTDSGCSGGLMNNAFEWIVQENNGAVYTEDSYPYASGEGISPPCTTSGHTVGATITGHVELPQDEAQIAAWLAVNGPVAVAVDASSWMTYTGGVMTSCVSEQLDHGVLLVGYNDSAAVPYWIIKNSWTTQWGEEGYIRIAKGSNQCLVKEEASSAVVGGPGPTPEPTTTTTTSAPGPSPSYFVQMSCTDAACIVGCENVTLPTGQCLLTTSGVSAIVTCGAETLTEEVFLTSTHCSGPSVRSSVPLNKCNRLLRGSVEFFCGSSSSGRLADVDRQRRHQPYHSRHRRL
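Detergent-free condition (0.00005% Triton X-100) in acetate buffer pH 5.5 with DTT. 1.5 nM enzyme and compound were pre-mixed 15 min, then 2 uM Z-FR-AMC substrate added; reaction progress from fluorescence change between first and third reads (60 s).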
RE007 growth inh: less growth of the S. pombe RE007 Vpr strain | AID 651644 | hit rate 0.21% among 360,000 | S. pombe RE007 Vpr strain, BacTiter-Glo ATP luminescence, 24 h; control for the full effect not named in the record | Potency, µM (highest dose often 92.2 µM), without a hit: top-dose activity change, negative = less growth; active = well fitted falling curve with a large enough effect; inconclusive = small, poorly fitted or top-dose-only effect; inactive = no such curve, though single readings can be large or run the other way;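 note: % is set by controls: 0 for no effect and ±100 for the full control effect; nearly all actives have a fitted effect of over 50% in size; the assay follows cell death caused by Vpr and the record does not say whether a fall means rescue or toxicity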
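Fission yeast RE007 carrying one integrated HIV-1 vpr copy, seeded at OD 0.01 in PMG+AL medium with 23 nL pinned compound. Grown 24 h at 30 degrees; viability read by BacTiter-Glo luminescence after 5 min.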
SARS PLP yeast: SARS-CoV PLP inhibition in yeast; S. cerevisiae expressing SARS-CoV PLpro, growth rescue; control for the full effect not named in the record; Potency, µM (doses to about 32.9 µM), inactives show top-dose activity, positive = growth rescue; hit rate 0.19% among 330,000; AID 485353; active means well fitted rising curve with a large enough effect; inconclusive means small, poorly fitted or top-dose-only effect; inactive means no such curve, though single readings can be large or run the other way; note: 0% is about no effect; nearly all actives have a fitted effect of over 55% in size; growth read by luminescence after 48 h
Cruzain Triton: cruzain (T. cruzi) inhibition with detergent. hit rate 0.43% among 200,000. P25779. Potency, µM, inactives show max response, negative = inhibition, actives largely listed as inhibitors. purified cruzain, Z-FR-AMC fluorescence, 0.01% Triton;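 note: plate controls were neutral wells for no effect and buffer without enzyme for full effect; nearly all actives have a fitted effect of over 40% in size; top concentration of the series not given in the record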
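Detergent-containing run (0.01% Triton X-100) in acetate buffer pH 5.5 with 5 mM DTT: enzyme at 1.5 nM final, 15 min compound preincubation at room temperature, then 2 uM Z-FR-AMC substrate. Activity taken as 60 s fluorescence increase at 360/450 nm.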
* hit, by the source's call; ? = inconclusive; / = no result given; & = joins results of further samples; [ ] = remark or other dose. Unless noted, calls come from the whole dose curve; as a rule, active = well fitted curve in the direction sought with a large enough effect; inconclusive = small, poorly fitted or top-dose-only effect, or another doubt; inactive = no such curve, though single readings can be large; an effect the other way counts as inactive or inconclusive. Potency is the fitted concentration of half-maximal effect.

SMILES	Lassa entry inh	MARV entry inh	2A StopGo	NS1 inh	Cruzain inh noDet	RE007 growth inh	SARS PLP yeast	Cruzain Triton
CCCCCOc1ccc(C2C(C(C)=O)=C(C)Nc3ncnn32)cc1OC (stereo not given)	-34.9%	-27.3%	-35.5%	6.8%	-8.9%	?	5.5%	3.3%
CN(C)C(=O)Nc1cnc2ccccc2c1	-12.2%	2.6%	0.4%	2.0%	-2.6%	1.6%	-2.8%	0.9%
CC(C)CC(C)c1cc(N)nc2nc3ccccc3n12 (stereo not given)	?	?	-28.2%	/	/	-5.7%	-1.0%	/
CC(=O)c1c(C)[nH]c(C(=O)N2CCN(S(=O)(=O)c3ccc(F)c(F)c3)CC2)c1C	-4.9%	?	?	/	/	-8.4%	0.0%	/
Cn1c(=O)n(C)c2cc(S(=O)(=O)NCc3ccco3)ccc21	-2.0%	-21.8%	32.4%[activator]	0.5%	8.8%	-11.8%	1.7%	-5.4%
CCCCNc1oc(-c2cccs2)nc1S(=O)(=O)c1ccccc1	?	?	20.6%	-53.2%	-10.7%	14.0%	-9.3%	-13.0%
N/C(=N\OC(=O)Cc1ccc(-c2ccccc2)cc1)c1ccccn1	?	4.2%	-4.3%	4.5%	-20.3%	-18.9%	-33.0%	-1.9%
COc1ccc(OC)c(NC(=O)CCNS(=O)(=O)c2ccc3c(c2)c(=O)n(C)c(=O)n3C)c1	9.8%[46.1 µM]	9.7%[46.1 µM]	19.9%	/	/	-9.5%	0.4%	/
Cc1ccc(-n2nc(C)c(C3(O)C(=O)N(C)c4ccccc43)c2N)cc1 (stereo not given)	/	0.8%	-1.2%	-7.7%	8.3%	-5.7%	-35.5%	-1.6%
CC(=O)C1=C(C)OC(N)=C(C#N)C1c1cc2cc(C)c(C)cc2nc1Cl (stereo not given)	-5.1%	0.5%	12.0%	-7.1%	6.0%	18.1%	8.5%	0.8%
COC(=O)c1sc(N2C(=O)C(O)=C(C(=O)c3ccc(C)o3)C2c2ccc(F)cc2)nc1C (stereo not given)	6.0%	13.0%	/	15.3%	?	-10.6%	?	-28.3%
CCOc1cc(NC(=S)Nc2ccc(Cl)cc2)c(OCC)cc1NC(C)=O	?	-12.2%[46.1 µM]	10.9%	-4.2%	/	0.5%	-1.6%	/
CCN(CC)c1ccc(NC(=S)NCC2CCCO2)cc1 (stereo not given)	-22.2%[46.1 µM]	?	-4.5%	-4.3%	/	-5.8%	-0.4%	/
COc1ccc(C(C(=O)NC2CCCC2)N(Cc2ccccc2)C(=O)c2nsc(Cl)c2Cl)cc1 (stereo not given)	?	?	/	1.2%	0.8%	4.5%	-11.4%	-4.5%
C/C(=N/NC(=O)C1CCCN1C(=O)c1ccc([N+](=O)[O-])cc1)c1ccc(Br)cc1 (stereo not given)	?	29.8%	-6.8%	-18.0%	/	-5.6%	5.6%	/
COc1ccc(Cl)cc1NC(=O)C(=O)NCc1ccncc1	?	-0.2%	-7.1%	/	/	-3.3%	1.2%	/
CCOc1ccc(CNCCSc2nnnn2C)cc1	-8.5%[46.1 µM]	2.5%[46.1 µM]	0.0%	/	0.3%	/	/	-0.4%
C=CCn1c(SCC(=O)c2[nH]c(C)c(C(=O)OCC)c2C)nc2scc(-c3ccccc3)c2c1=O	8.7%	?	-19.6%	-6.9%	1.5%	14.5%	?	-2.8%
CSCCNCc1c(C(=O)N2CCOCC2)nc2c(C)cccn12	11.1%	4.3%[46.1 µM]	-15.2%	-0.1%	/	3.8%	0.2%	/
Oc1c(Br)cc(Br)cc1/C=N/Nc1ccc(Cl)nn1	?	-1.2%[46.1 µM]	1.3%	-0.6%	/	0.0%	-7.2%	/
O=C(c1ccc(Br)o1)N1CCN=C1SCc1cccnc1	/	/	-19.3%	-33.3%	-11.6%	-16.2%	5.2%	4.3%
O=C1CN(C(=O)COc2c(Cl)cccc2Cl)c2ccccc2N1	-3.9%	18.3%	2.7%	/	/	-18.3%	-1.2%	/
COc1ccc(-c2ccc(=O)n(CC(=O)NCCc3ccccc3)n2)cc1	-9.4%[46.1 µM]	/	2.3%	/	-11.6%	/	/	-1.3%
CC(C)c1cc(CNC(=O)CCc2nnc(CCCCc3ccccc3)o2)on1	/	/	-2.1%	-0.9%	/	21.8%	0.3%	/
CCN(CC)c1nc2n(c(=O)n1)CCO2	0.0%	0.0%	-10.0%	-4.0%	4.2%	-8.3%	/	5.3%
Cc1nn(C)cc1C(C)Nc1nc2nonc2nc1N1CCCCC1 (stereo not given)	24.9%[46.1 µM]	3.0%[46.1 µM]	-4.9%	1.4%	/	6.5%	5.0%	/
CCCCN(C)CCCNC(=O)CN1C(=O)COc2ccc(S(=O)(=O)N3CCC(C)CC3)cc21	?	-22.2%[46.1 µM]	-19.5%	/	-5.5%	/	/	0.8%
Cc1c(C#N)c(N)nc(Cl)c1C#N	?	?	?	/	/	0.5%	-0.4%	/
CN1CCC(NC(=O)Nc2ccc(Br)cc2)CC1	/	/	17.2%	-9.7%	/	-2.4%	0.4%	/
Cc1ccc(OCC(=O)N2CCCCC2)c(Br)c1	-5.0%	18.3%	64.6%[activator]	-8.8%	-7.3%	-7.2%	-3.6%	-0.1%
Cc1ccc2nc(NC(=O)CCCc3nc4ccccc4s3)sc2c1	?	?	15.3%	7.6%	5.1%	-4.2%	-1.5%	-6.0%
COc1ccc(CCN2CC(C(=O)N(C)Cc3ccccc3OC)CCC2=O)cc1 (stereo not given)	-21.4%[46.1 µM]	-14.1%[46.1 µM]	-11.3%	-20.7%	/	-8.2%	-2.1%	/
CCc1ccc(NC(=O)C2CCCN(S(=O)(=O)c3cccc4cccnc34)C2)cc1 (stereo not given)	?	?	0.0%	/	0.5%	/	/	-6.4%
CCN(CC)c1ccc(/C=N/NS(=O)(=O)c2ccc(C)c([N+](=O)[O-])c2)cc1	-3.4%	1.9%	65.3%[activator]	-6.9%	13.4%	3.6%	-17.7%	-13.0%
CC(=O)Nc1cccc(Nc2nc(-c3ccccc3)nc3ccccc23)c1	1.4%[46.1 µM]	?	?	-25.7%	/	-12.0%	-4.6%	/
Cc1ccc([N+](=O)[O-])cc1N	12.9%	-4.9%&-4.9%&-4.9%	2.9%	/	-5.3%	0.9%	-1.8%	-2.3%
CCC(=O)N1CCN(c2ccc(NC(=O)COc3ccc(CC)cc3)cc2)CC1	2.4%	?	?	6.9%	/	26.6%	-7.6%	/
O=C(Cc1cccs1)OCC(=O)c1ccco1	4.9%	-5.4%	-5.1%	10.0%	-2.1%	-17.4%	-3.8%	-3.2%
CC1CCN(c2ccc([N+](=O)[O-])cc2C(N)=O)CC1	-13.6%	0.5%[46.1 µM]	-3.0%	1.8%	/	-10.1%	0.4%	/
Cc1cccc2sc(NC(=O)C3CSC4(C)CCC(=O)N34)nc12 (stereo not given)	/	/	-17.7%	14.6%	/	-4.4%	-7.4%	/
CCc1ccc(C2CC(=O)c3c([nH]c(C(=O)OCC4CCCCC4)c3C)C2)cc1 (stereo not given)	2.1%[46.1 µM]	10.7%[46.1 µM]	-12.2%	/	-3.0%	/	/	-1.2%
Cc1ccc(-c2noc(CNC(=O)COc3cc(C)c(Br)c(C)c3)n2)cc1	5.3%[46.1 µM]	-0.6%[46.1 µM]	-15.1%	/	-7.3%	/	/	-3.6%
COc1ccc(C(CC(=O)O)N2C(=O)CCC2=O)cc1 (stereo not given)	-2.3%[46.1 µM]	-7.3%[46.1 µM]	8.2%	5.4%	/	-17.3%	0.0%	/
CC(O)CO (stereo not given)	/	/	-8.9%	/	-7.1%&-6.8%	-0.8%	-11.0%	-0.4%&4.1%
Cc1cc(C)c(S(=O)(=O)N2CCN(C(=O)C(C)Cn3cncn3)CC2)c(C)c1 (stereo not given)	/	20.4%[46.1 µM]	1.6%	0.8%	/	7.5%	16.9%	/
COc1cc(C(=O)N/N=C/c2ccsc2C)cc(OC)c1OC	?	?	-13.3%	5.8%	-16.9%	-2.6%	-5.2%	-3.0%
COc1cc2ccccc2c2c1CCCC2=O	?	4.9%	-2.0%	-11.0%	0.4%	?	-26.1%	-0.5%
O=C(NNc1nc(N2CCOCC2)nc(N2CCOCC2)n1)c1ccccc1	-1.0%	-22.1%	-11.2%	/	/	-14.6%	/	/
CCCCNC(=O)Cn1cnc2c(cnn2-c2ccc(C)c(C)c2)c1=O	?	-11.9%	16.1%	-2.6%	-26.2%	13.2%	11.1%	3.8%
Nc1nc(Nc2ccccc2)nc(NCc2ccco2)c1[N+](=O)[O-]	-19.6%	?	?	-17.2%	-6.6%	48.7%	-5.6%	-14.5%

(next part)
SMILES	Lassa entry inh	MARV entry inh	2A StopGo	NS1 inh	Cruzain inh noDet	RE007 growth inh	SARS PLP yeast	Cruzain Triton
CCc1cc2c(=O)[nH]c(N3CCCC3)nc2s1	?	20.9%	50.6%[activator]	-1.1%	2.8%	5.6%	9.2%	-4.8%
c1ccc(C2Nc3ccccc3Oc3ccccc32)cc1 (stereo not given)	-2.5%	-49.1%[46.1 µM]	-25.6%	-0.8%	-11.7%	-11.3%	-44.0%	-11.1%
NC(=S)NN=C(c1ccc(F)cc1)C1CC1	3.6%	18.2%	-30.0%	/	/	0.1%	/	/
COc1cccc(CNc2ncc(-c3ccccc3)n2C)c1	-20.3%[46.1 µM]	?	12.5%	-2.4%	/	-4.9%	-4.3%	/
Cc1cc(OCC(=O)O)c2c3c(c(=O)oc2c1)CCCC3	-1.3%	2.5%	12.6%	-3.9%	-9.3%	12.7%	-1.2%	0.6%
O=C(NN1CCCCC1)c1cccc(COc2ccc(Cl)cc2)c1	?	?	9.0%	-1.4%	-1.7%	8.2%	-6.5%	-2.2%
O=C(Nc1ccc(Cl)cc1)N1CCc2ccccc2C1	16.3%	?	66.4%[activator]	-2.5%	/	-29.6%	-1.0%	/

Screening data (PubChem BioAssay)
